YopH PTP inh = YopH tyrosine phosphatase inhibitors, primary screen, biochemical, fluorescence Ex485/Em525 | YopH tyrosine phosphatase [Yersinia enterocolitica] | inhibition, %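 (about 10 µM by stock and volumes)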 | 140,000 tested, 0.16% active;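 active = inhibition of 50% or more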;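 also: controls were vehicle for no effect and minimum signal wells for full effect; inactives centre near -20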
RecA splice inh = Mtb RecA intein splicing inhibitors, primary screen, biochemical, fluorescence, HTS | AID 2221, 2009 | cell-free RecA intein splicing | inhibition, %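 (about 9 µM by stock and volumes)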 | Protein RecA (Mycobacterium tuberculosis (strain ATCC 25618 / H37Rv)), P9WHJ3 | 290,000 tested, 0.75% active; in the data active = inhibition above about 30%; inconclusive = no clear call, values can overlap the other calls;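 also: 0% = vehicle wells and 100% = reference inhibitor control wells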
Target sequence (P9WHJ3 whole entry, looked up, canonical isoform): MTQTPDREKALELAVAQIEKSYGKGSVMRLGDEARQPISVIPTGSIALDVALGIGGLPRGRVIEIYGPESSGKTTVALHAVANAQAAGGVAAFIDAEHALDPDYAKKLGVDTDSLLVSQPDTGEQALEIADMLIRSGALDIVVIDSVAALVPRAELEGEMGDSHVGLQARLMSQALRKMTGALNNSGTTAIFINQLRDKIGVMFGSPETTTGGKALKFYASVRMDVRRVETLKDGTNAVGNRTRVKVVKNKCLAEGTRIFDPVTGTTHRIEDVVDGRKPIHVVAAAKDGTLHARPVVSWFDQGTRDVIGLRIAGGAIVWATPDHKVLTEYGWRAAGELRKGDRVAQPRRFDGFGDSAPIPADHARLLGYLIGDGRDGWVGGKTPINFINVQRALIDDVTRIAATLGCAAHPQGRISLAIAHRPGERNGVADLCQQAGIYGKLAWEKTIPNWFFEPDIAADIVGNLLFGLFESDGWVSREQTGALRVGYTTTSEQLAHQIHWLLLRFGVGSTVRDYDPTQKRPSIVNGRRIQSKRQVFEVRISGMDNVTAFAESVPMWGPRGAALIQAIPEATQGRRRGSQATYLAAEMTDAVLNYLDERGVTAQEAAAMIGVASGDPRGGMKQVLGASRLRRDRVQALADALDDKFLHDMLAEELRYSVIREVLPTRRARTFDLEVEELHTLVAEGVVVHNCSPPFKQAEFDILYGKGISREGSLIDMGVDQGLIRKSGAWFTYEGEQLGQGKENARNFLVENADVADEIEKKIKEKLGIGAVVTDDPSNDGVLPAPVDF
Arbovirus inh = antivirals against arbovirus infection, primary screen, cell-based, full library, 10K replicate subset; arbovirus infection cell-based antiviral screen; inhibition, % at 10 µM; AID 1251, 2008; 200,000 tested, 0.37% active;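 active = inhibition from about 30%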;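 also: bluetongue infection of BSR cells; cell survival read as ATP light after 72 h; 0% = infected wells without compound and 100% = uninfected wells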
Mtb H37Rv = M. tuberculosis H37Rv growth inhibitors, H37Rv strain (AID 1626) | 220,000 tested, 0.95% active | M. tuberculosis H37Rv growth inhibition; higher % means a stronger effect | inhibition, % at 10 µM, or IC50 in µM where a hit was titrated;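 active = confirmed in a dose series; inconclusive = inhibition above 80% but not taken into the dose series; inactive = below 80% or under 30% at every dose of the series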;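 also: bacteria incubated seven days before Alamar blue readout; 0% = bacteria only wells and 100% = bacteria with antibiotic wells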
Mtb bLac sens = beta-lactam sensitization of Mtb H37Rv, H37Rv | M. tuberculosis H37Rv growth with meropenem, percent inhibition; hits of this screen are not shown here | inhibition, % at 25 µM | 330,000 tested, 0.27% active | AID 434955, 2010;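 active = about 74% or more and at least 40 points above the plate without the antibiotic, then above 30% in a dose series; inconclusive = first-round hits that could not be retested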;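 also: growth measured after seven days incubation then overnight dye step; 0% = bacteria only wells and 100% = bacteria with antibiotic; twin plates without the antibiotic show which effects depend on it; some results filed as inactive read as strong as hits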
Arbovirus inh repeat = second read-out of Arbovirus inh, no call of its own (marks repeat the call); inhibition, %; measured here: 10K subset replicate screen; many hits read low in the repeat;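 first of two repeat runs on a subset; 0% = infected and 100% = uninfected wells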
* marks the source's active call; other numbers are inactive results; ? = inconclusive; . = not tested or not shown. Not all compounds are listed; count on the stated rates, not on these rows.

SMILES	YopH PTP inh	RecA splice inh	Arbovirus inh	Mtb H37Rv	Mtb bLac sens	others
CCOC(=O)c1c(NS(=O)(=O)Cc2ccccc2)sc2c1CCCC2	1	.	17	0%	2
CCN1C(=O)C2(Nc3ccccc3-c3nc4ccccc4n32)c2cc(OC)ccc21 (stereo not given)	-60	10	-9	.	7
O=C(O)Cc1c(-c2ccccc2Cl)c2cc(Br)ccc2[nH]c1=O	.	3.6	.	-2%	-6
CCOc1ccc(CNS(=O)(=O)c2cccs2)cc1OCC	.	-1.2	.	.	3
CCCCCCNC(=O)c1ccc(Br)o1	-24	1.6	-5	8%	10
O=S(=O)(NCc1ccco1)c1cccc(S(=O)(=O)N2CCCCC2)c1	-19	1.1	-3	.	6
COc1ccc(NC(=O)c2c(NC(=O)CCC(=O)O)sc(-c3ccccc3)c2C)cc1	.	.	3	-6%	0
COc1ccc(C=O)cc1Oc1nc(Cl)ncc1F	.	2.2	-6	-1%	-4
Cc1nnc(SCC(=O)NC(=O)Nc2ccc3c(c2)OCCO3)s1	.	-2.2	15	-3%	-1
COc1ccccc1NC(=O)CSCC(N)=O	-112	-1.7	6	-2%	4
O=C(c1ccc([N+](=O)[O-])cc1)N1CCN=C1SCc1ccccc1	.	-3.4	2	8%	7
CCCCc1nnc(NC(=O)CN2C(=O)C3CCCCC3C2=O)s1 (stereo not given)	.	-1.7	.	.	-1

Overlap with the part before: two compounds, followed by the next part.
SMILES	YopH PTP inh	RecA splice inh	Arbovirus inh	Mtb H37Rv	Mtb bLac sens	others
O=C(c1ccc([N+](=O)[O-])cc1)N1CCN=C1SCc1ccccc1	.	-3.4	2	8%	7
CCCCc1nnc(NC(=O)CN2C(=O)C3CCCCC3C2=O)s1 (stereo not given)	.	-1.7	.	.	-1
CC(=O)Nc1ccc(Nc2nnc(-c3ccc(C)c(S(=O)(=O)NCC4CCCO4)c3)c3ccccc23)cc1 (stereo not given)	.	-80	.	-8%	0
CC(C)(C)c1ccc(OCC(=O)NNC(=O)CCc2ccccc2)cc1	-32	-2.7	16	.	?
N#Cc1nc(-c2ccc(Cl)cc2)oc1NCc1cccc2c1OCO2	-1	-0.1	-1	4%	0
Cc1cccc(Oc2cc(NC(=O)c3ccccc3)cc([N+](=O)[O-])c2)c1	1	1.0	-9	2%	-13
CCC1(c2ccccc2)NC(=O)N(CC(=O)Nc2ccccc2C(=O)NC2CCCC2)C1=O (stereo not given)	.	-0.9	.	.	-4
COC(=O)c1ccc(NC(=O)c2cc3sccc3n2C)cc1	25	.	4	5%	34
Fc1ccccc1NC(=S)NCc1ccccc1	.	1.6	.	.	-7
O=C1CCN(CCc2ccccc2)CCN1[C@H](CSc1ccc(Br)cc1)c1ccccc1	.	2.3	.	-1%	-4
COc1ccc(-n2c(-c3ccc(C)cc3)n[nH]c2=S)cc1	-14	5.2	1	1%	-4
Cc1cc(N2CC(C)OC(C)C2)nc(C(C)C)n1 (stereo not given)	.	4.0	4	-2%	-3
ClC1=C(Cl)C(Cl)=C(Cl)C1=C/C=C/c1ccccc1	.	4.2	.	?	100
O=C(c1ccccc1)c1nn(-c2cccc(Cl)c2)ccc1=O	.	0.0	.	8%	-1

Arranged by heavy-atom count (rising): some entries from above.
SMILES	YopH PTP inh	RecA splice inh	Arbovirus inh	Mtb H37Rv	Mtb bLac sens	others
Fc1ccccc1NC(=S)NCc1ccccc1	.	1.6	.	.	-7
COc1ccc(-n2c(-c3ccc(C)cc3)n[nH]c2=S)cc1	-14	5.2	1	1%	-4
COC(=O)c1ccc(NC(=O)c2cc3sccc3n2C)cc1	25	.	4	5%	34
CC(C)(C)c1ccc(OCC(=O)NNC(=O)CCc2ccccc2)cc1	-32	-2.7	16	.	?
O=C1CCN(CCc2ccccc2)CCN1[C@H](CSc1ccc(Br)cc1)c1ccccc1	.	2.3	.	-1%	-4
CC(=O)Nc1ccc(Nc2nnc(-c3ccc(C)c(S(=O)(=O)NCC4CCCO4)c3)c3ccccc23)cc1 (stereo not given)	.	-80	.	-8%	0

The listing continues.
SMILES	YopH PTP inh	RecA splice inh	Arbovirus inh	Mtb H37Rv	Mtb bLac sens	others
Cc1cc2nc(N=C(N)N)nc(C)c2cc1C	.	.	-6	7%	.
CCn1cc([N+](=O)[O-])c(C(=O)Nc2ccn(C34CC5CC(CC(C5)C3)C4)n2)n1	-21	-5.8	-23	0%	1
CCN(CC)Cc1c(C(=O)N/N=C/c2cccnc2)nnn1-c1nonc1N	.	-2.7	.	.	-9
CCN(CC)C(=O)Cn1cc(C(=O)C(=O)NCCCN2CCOCC2)c2ccccc21	.	1.0	.	.	-10
O=C(OCc1ccc([N+](=O)[O-])cc1)c1cc(S(=O)(=O)N2CCCCC2)ccc1N1CCOCC1	.	-1.2	.	.	2
S=C(NCc1cccs1)Nc1ccc(Br)cc1Cl	.	5.5	-1	6%	-3
CCCC(=O)N1c2ccccc2NC2=C(C(=O)CCC2)C1c1ccc(F)cc1 (stereo not given)	-8	0.1	-2	-12%	-4
Cc1cc(C)nc(N/N=C/C2=C(O)CC(c3ccccc3)CC2=O)n1 (stereo not given)	.	-3.3	.	2%	37
CC(OC(=O)Cn1cnc2c1c(=O)n(C)c(=O)n2C)C(=O)Nc1ccc(Cl)cc1 (stereo not given)	.	-0.5	.	.	-8
CCSc1nc2c(c(=O)n1Cc1ccccc1)SC(C)C2 (stereo not given)	-3	5.8	0	-5%	5
O=C(Nc1ccccc1)Nc1cccc(Cl)c1	0	1.7	16	2%	-4
COC(=O)c1sc(NC(=O)c2cnccn2)c(C(=O)OC)c1C	12	0.1	.	-1%	1
COc1ccc(-c2nnn(CC(=O)N(CC(=O)NC3CCCC3)c3cccc(C)c3)n2)cc1OC	-1	2.4	-12	2%	-6
COc1ccc(NC2CCCN(C(=O)CCN3CCCC3=O)C2)cc1OC (stereo not given)	.	-1.3	.	.	-6
O=C(COc1ccccc1C(=O)NCC1CCCO1)Nc1ccc(Br)cc1 (stereo not given)	.	-3.8	11	14%	-4
O=C1NC(=O)C(=Cc2cc([N+](=O)[O-])ccc2N2CCCCC2)C(=O)N1	.	-6.3	-1	5%	-1
O=C(NCCCN1CCN(CCCNC(=O)c2ccccc2F)CC1)c1ccccc1F	-14	-3.1	-2	-12%	10
Cc1ccccc1S(=O)(=O)Cc1ccc(C(=O)NCCCN(C)Cc2ccccc2)o1	.	1.9	.	.	-3
O=C(O)[C@H]1CCCC[C@H]1C(=O)Nc1ccc(S(=O)(=O)N2CCCCC2)cc1	.	-1.9	.	.	1
Nc1c(C(=O)NCCc2ccccc2)nnn1Cc1ccc(Cl)cc1	-8	-1.6	1	-7%	7
Cc1ccccc1NC(=O)/C(C#N)=C/c1ccsc1	-21	0.0	-1	-3%	-1
COc1ccc(C)cc1NC(=O)Nc1ccccc1SC	.	.	-5	-1%	4
O=c1[nH]c(=O)n(C2CCCCCC2)c(O)c1C=NCC1CCCO1 (stereo not given)	11	-0.6	1	2%	1
COc1ccc2nc(CCN(C)C(=O)C3CCC(=O)N(Cc4cccc(F)c4)C3)[nH]c2c1 (stereo not given)	.	1.7	.	.	1
COC(C(=O)NNC(=O)CCc1ccccc1)c1ccccc1 (stereo not given)	.	1.8	3	-3%	4
O=[N+]([O-])c1ccc2nc(N3CCNCC3)ccc2c1	.	0.4	.	-9%	-4
Cc1ccc(N(C)C(=O)c2cc(S(=O)(=O)N3CCc4ccccc43)cn2C)cc1	.	6.0	.	.	4
CCOc1ccc(-c2c(C(=O)N/N=C/c3sccc3C)nnn2-c2nonc2N)cc1	.	-4.1	.	.	5
O=C(COC(=O)c1ccc(F)cc1)Nc1ccc(Cl)cn1	.	-1.2	.	-6%	0
COc1ccc(N2CCN(S(=O)(=O)c3c[nH]c(=O)[nH]c3=O)CC2)cc1	.	-3.5	.	.	-2
CCCOc1ccc(Cn2c(C)nc([N+](=O)[O-])c2SCC(O)COC)cc1[N+](=O)[O-] (stereo not given)	-12	2.5	10	-4%	-2
COc1ccc(CCNC(=O)C2CC=CCC2C(=O)O)cc1 (stereo not given)	.	-0.2	.	.	12
CCN(CC)S(=O)(=O)c1ccc(NC(=O)c2c(-c3ccccc3)noc2C)cc1	-12	.	-13	-8%	-5
O=C(Nc1nccs1)c1cccc(S(=O)(=O)N2CCOCC2)c1	-47	-1.9	0	1%	1	Arbovirus inh repeat=0
COc1cc(OC)c(C=O)c(OC(=O)N2CCOCC2)c1	.	-2.2	.	.	-1
CCc1sc(N)nc1-c1ccccc1	-21	-0.8	4	>100µM*	92
Cc1ccc2oc(=O)c3cc(C(=O)NCCN4CCc5ccccc5C4)sc3c2c1	0	0.9	6	.	-1
CC1(C)CC(=O)C(N=Nc2ccc(Cl)cc2)=C(O)C1	-27	2.9	-1	0%	-6
COc1ccc(NC(=O)N2c3ccc(OC)cc3C(C)=CC2(C)C)cc1	-7	2.8	-5	89%	-6
CCC[C@@H]1CCCO[C@@](C(=O)NCCN2CCOCC2)(C(F)(F)F)C1	.	-2.2	.	-9%	-2
Cc1sc(NC(=O)c2ccc(Cl)s2)c(C(N)=O)c1C	-5	-4.3	8	4%	.
Cc1nc(N2CCC(C)CC2)c2c(C)c(C(=O)Nc3ccccc3C(F)(F)F)sc2n1	.	1.8	1	26%	10
Cc1ccc(OCC(=O)Nc2ccc(NC(=O)c3ccccc3)cc2)cc1C	.	1.9	.	.	-2
COc1ccc(CCNC(=O)c2ccccc2N(C)S(=O)(=O)c2ccccc2)cc1	-16	0.5	-4	2%	-3
Cn1c(SCC(=O)NC(=O)CN2CCCC2=O)nnc1-c1ccc(F)cc1	.	-1.3	8	4%	4
COc1ccc(NC(=O)C2CC(=O)NC3=C2C(=O)CC(C)(C)C3)cc1 (stereo not given)	-2	-1.1	0	-12%	-12
Cc1cc(Br)c(OCC(=O)NN)c2c1CCC2	.	.	.	-15%	5
COc1ccc(CN2CCCC(CO)(Cc3cccc(Cl)c3)C2)cc1OC (stereo not given)	.	-0.8	.	.	-2

Looked up by structure from the list above:
SMILES	YopH PTP inh	RecA splice inh	Arbovirus inh	Mtb H37Rv	Mtb bLac sens	others
COC(=O)c1ccc(NC(=O)c2cc3sccc3n2C)cc1	25	.	4	5%	34
CCCCc1nnc(NC(=O)CN2C(=O)C3CCCCC3C2=O)s1 (stereo not given)	.	-1.7	.	.	-1

Gathered by group, those above with a COOH group
SMILES	YopH PTP inh	RecA splice inh	Arbovirus inh	Mtb H37Rv	Mtb bLac sens	others
O=C(O)Cc1c(-c2ccccc2Cl)c2cc(Br)ccc2[nH]c1=O	.	3.6	.	-2%	-6
COc1ccc(NC(=O)c2c(NC(=O)CCC(=O)O)sc(-c3ccccc3)c2C)cc1	.	.	3	-6%	0
O=C(O)[C@H]1CCCC[C@H]1C(=O)Nc1ccc(S(=O)(=O)N2CCCCC2)cc1	.	-1.9	.	.	1
COc1ccc(CCNC(=O)C2CC=CCC2C(=O)O)cc1 (stereo not given)	.	-0.2	.	.	12

Other results:
SMILES	YopH PTP inh	RecA splice inh	Arbovirus inh	Mtb H37Rv	Mtb bLac sens	others
COC(=O)c1ccc(C2OCC(C)(C)CO2)cc1	.	-3.0	9	-8%	4
Cc1ccc2c(c1)COc1c3ccc(C(=O)NCC4CC4)cc3nn1-2	.	-3.5	.	4%	-6
CCNc1ccccc(C(=O)/C=C/c2ccc3c(c2)OCO3)c1=O	-11	-6.9	3	2%	-1
Cc1ccc(C)c(NC(=O)CSc2nc3c(c(=O)n2C)SC(C)C3)c1 (stereo not given)	-21	1.2	3	0%	-5	Arbovirus inh repeat=11
O=C(Nc1nnc(C2CC2)s1)C1COc2ccccc2O1 (stereo not given)	.	0.8	7	-2%	-6
CCCCN1C(=O)c2ccccc2C1C(=O)NC1CCCC1 (stereo not given)	-25	0.6	13	-8%	-12
O=C(O)Cc1ccc(NC(=O)c2ccc(NC(=O)c3ccco3)cc2)cc1	8	-7.7	5	2%	2
CCOC(=O)CSc1nnc2n1C(C)(C)Cc1ccccc1-2	-2	.	4	-4%	10
CCn1ncc(S(=O)(=O)Nc2cccnc2)c1C	.	2.3	.	.	-18
CCCCc1c(O)nc(SCC(=O)N2CCCCC2)n(-c2ccccc2C)c1=O	-50	0.4	3	1%	1
COC(=O)c1cccc(NC(=O)Cc2ccc(OC)cc2)c1C	-29	-0.8	-1	-2%	-10
CC(=O)Nc1cccc(NC(=O)CS(=O)(=O)c2cn(CC(=O)N3CCOCC3)c3ccccc23)c1	.	-1.7	2	-4%	3
COC(=O)C1=C(CSc2nc3ccccc3o2)NC(=O)NC1c1cc(C)ccc1C (stereo not given)	16	0.0	16	10%	46
O=C1OC(c2ccc(Br)cc2)=N/C1=C\N1CCCCC1	-18	1.3	-1	3%	?

Source: PubChem BioAssay
